Vif A3G – HIV-1 Vif–A3G interaction blockers – biochemical, TR-FRET, GST-Vif 1-94, biotin-A3G peptide, dose response retest, primary screen (AID 1117319); inhibition, %, or IC50 in µM where a hit was titrated; actives 0.57% (n = 260,000); TR-FRET GST-Vif / biotin-A3G peptide binding; higher % means a stronger effect; test concentration not given here; strong numbers were not always called active;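 active = above the screen mean plus three standard deviations and confirmed in dose response; inconclusive = results disagree or hit not tested in dose response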;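 also: Vif residues 1-94 fused to GST binding biotinylated APOBEC3G peptide 110-148; 0% = full assay without inhibitor and 100% = GST in place of GST-Vif; retest series ran down from 100 µM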
Ecoli growth – inhibitors of Escherichia coli growth; OD600, 23 h; stronger effect = lower value; OD600 absorbance (no concentration beside the values); actives 0.21% (n = 330,000);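 active = OD600 absorbance below the run mean of sample wells minus 3.6 SD, in any replicate, cut at about 0.56 in these data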;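 also: stock transfer was 300 nL into about 60 µL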
ALR H2O2 inh – inhibitors of human sulfhydryl oxidase ALR | actives 3.8% (n = 290,000) | inhibition, % (concentration not given with the values) | purified ALR, DTT oxidation, H2O2 HRP-luminol luminescence | AID 485317 | P55789;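 active = mean and each replicate at 75% or more; inconclusive = only one of the two met; inactive = neither met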;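 also: stock transfer was 7.5 nL into about 7.5 µL; 0% = neutral wells and 100% = wells with inactivated enzyme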
Target sequence (P55789 whole entry, looked up): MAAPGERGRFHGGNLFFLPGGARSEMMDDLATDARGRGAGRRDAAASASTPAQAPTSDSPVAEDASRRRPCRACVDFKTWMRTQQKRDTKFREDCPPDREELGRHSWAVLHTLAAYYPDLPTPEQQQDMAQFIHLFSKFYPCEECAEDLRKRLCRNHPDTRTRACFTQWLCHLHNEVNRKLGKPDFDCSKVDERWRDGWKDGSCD
Ecoli rRNA inh – inhibits bacterial ribosomal RNA function over humanized ribosomes; E. coli WT GFP vs humanized-ribosome RFP mutants, fluorescence, 24 h; stronger effect = lower value; DMSO median 0, no signal -100; GFP signal change (wild-type ribosome), % (no concentration beside the values); actives 1.6% (n = 350,000); AID 720706;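 active = significant combined selectivity score with lowered wild-type GFP, culture density cut under 30%, mutant RFP and density less affected; inactive = any of these conditions unmet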; also: one replicate is shown; some compounds called inactive have numbers as strong as hits
HNF4A DNA FP – change in binding of human HNF4 alpha to DNA | activity change, % at 10 µM | HNF4a-FITC DNA binding, fluorescence polarization, 1 h | P41235 | actives 0.3% (n = 360,000); in the data active = activity change above about 30%, passing the limit was not always enough;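 also: controls were the assay level and a saturating level of protein; the project sought stronger binding though the title names inhibitors; some compounds called inactive have numbers as strong as hits; positive values seem to mean higher polarization but the record does not say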
Target sequence (P41235 whole entry, looked up): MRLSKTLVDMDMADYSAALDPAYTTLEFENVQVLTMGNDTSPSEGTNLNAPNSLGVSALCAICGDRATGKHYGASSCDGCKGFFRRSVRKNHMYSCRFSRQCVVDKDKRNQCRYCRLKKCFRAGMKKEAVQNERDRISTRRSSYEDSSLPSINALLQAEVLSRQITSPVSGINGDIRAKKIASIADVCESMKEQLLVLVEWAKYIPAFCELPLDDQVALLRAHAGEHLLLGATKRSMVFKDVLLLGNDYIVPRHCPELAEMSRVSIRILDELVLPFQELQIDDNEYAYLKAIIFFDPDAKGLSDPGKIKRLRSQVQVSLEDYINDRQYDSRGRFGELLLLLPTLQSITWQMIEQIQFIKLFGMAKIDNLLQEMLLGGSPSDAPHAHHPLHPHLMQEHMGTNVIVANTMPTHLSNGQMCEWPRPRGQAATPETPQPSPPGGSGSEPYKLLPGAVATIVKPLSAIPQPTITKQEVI
FGF22 binding – shifts melting point of recombinant human FGF22; actives 1.5% (n = 340,000); Q9HCT0; calls only at 9.99 µM; recombinant FGF22 thermal shift, SYPRO orange fluorescence; percent of sucrose octasulfate shift, DMSO zero; AID 651658;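 active = melting point raised past a set limit in the mean and every replicate; inconclusive = no clear call; three in four hits are not shown here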
Target sequence (Q9HCT0 whole entry, looked up): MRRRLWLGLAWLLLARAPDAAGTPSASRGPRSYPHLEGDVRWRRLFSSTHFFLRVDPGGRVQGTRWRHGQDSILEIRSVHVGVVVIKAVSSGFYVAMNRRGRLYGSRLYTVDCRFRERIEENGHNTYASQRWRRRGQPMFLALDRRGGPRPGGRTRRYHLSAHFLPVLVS
AF4-AF9 inh – inhibitors of human MLL-AF4/AF9 interaction | P42568 | AlphaScreen, biotin-AF4 peptide binding to FLAG-AF9 | inhibition, % at 10 µM | actives 0.47% (n = 350,000);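 active = every replicate reaching a set inhibition limit, whatever the replicate mean, cut at about 25% in these data; inconclusive = mean inhibition reaches that limit but some replicates miss it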;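 also: 0% = plate neutral control median and 100% = total signal loss; the record names both 10 and 1 µM as test concentration; the first replicate is given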
Ecoli rRNA inh OD600 – further read-out of Ecoli rRNA inh, marked with its call; OD600 change, %; measured here: OD600 growth;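 optical density of the mix in the first replicate; 0 = DMSO median and -100 = no signal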
Ecoli rRNA inh RFP – also measured in Ecoli rRNA inh; calls as there; RFP signal change, %; measured here: RFP humanized mutant strains;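 first replicate; 0 = DMSO median and -100 = no signal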
Numbers without * were called inactive; i = inactive; ? = inconclusive; · = no result given.

Ecoli rRNA inh RFP	ALR H2O2 inh	Ecoli rRNA inh	Vif A3G	Ecoli growth	AF4-AF9 inh	Ecoli rRNA inh OD600	FGF22 binding	HNF4A DNA FP	molecule
1.1	-1	18	8%	0.7	-2.8	11	i	5.0	COC(=O)c1ccc(NC(=O)Nc2ccc3c(c2)nc(C)n3C)cc1
0.3	-2	11	·	0.73	-1.2	7	i	-2.0	CN(C(=O)CSc1nncn1C)C1CCCN(Cc2ccccc2F)C1 (configuration not stated)
1.6*	-2	-23*	30%	0.72	-2.2	-27*	i	-5.8	O=C(Nc1ccc(Cl)c(S(=O)(=O)N2CCOCC2)c1)c1ccc2c(c1)OCO2
-1.2	-10	-20	4%	0.68	-0.3	-13	i	-0.7	Cc1cc2nc(CSc3ccccc3)cc(=O)n2[nH]1
1.2	-1	16	·	0.67	1.3	18	i	-1.2	O=C(Oc1ccc(-n2cnnn2)cc1)c1ccccc1
0.1	·	-1	·	·	0.3	2	i	-1.9	CC1(C(=O)NC2CCCCC2)CCC(=O)N1CC(F)(F)F (configuration not stated)
-0.3	-5	-18	·	0.69	-3.7	-19	i	-3.0	CCOc1ccccc1NC(=O)c1cccc(NC(=O)C2CCCC2)c1
2.4	·	-2	·	·	0.1	-5	i	·	C[C@H](CO)N1C[C@H](C)[C@H](CN(C)C)OCCCC[C@H](C)Oc2ccc(NC(=O)Nc3cccc4ccccc34)cc2C1=O
-0.7	-22	4	>100µM*	0.73	5.6	-2	i	-2.5	Oc1c(C(c2ccccc2)N2CCN(Cc3ccccc3)CC2)sc2ncnn12 (configuration not stated)
-6.0	-8	-8	·	0.76	7.1	-6	i	3.7	COc1ccc(-c2c(-c3ccc(OC)nc3)c3ccccc3n2C)cc1
-2.1	·	-2	·	·	0.5	2	i	·	C[C@@H]1CN([C@H](C)CO)C(=O)Cc2cc(N(C)C)ccc2O[C@H]1CN(C)Cc1ccncc1
-0.6	·	9	·	0.66	2.5	15	i	-1.6	O=C(COc1ccc(Cl)cc1)Nc1ccc2oc(=O)ccc2c1
-12	-1	-25	·	·	-0.3	-18	i	-7.0	Cc1ccc(S(=O)(=O)N2[C@@H](c3ccccc3)C(C(=O)O)=CC[C@H]2c2ccc(Cl)c(Cl)c2)cc1
6.6	89*	1	·	0.7	3.4	4	i	1.7	Cn1c(C2CCCCC2)nc2cc(N)ccc21
·	0	·	-2%	0.84	·	·	·	1.9	CCOC(=O)NC(Nc1cc(C)on1)(C(F)(F)F)C(F)(F)F

Of the compounds above, these contain a carbonyl joined to an NH by a bond outside any ring.
Ecoli rRNA inh RFP	ALR H2O2 inh	Ecoli rRNA inh	Vif A3G	Ecoli growth	AF4-AF9 inh	Ecoli rRNA inh OD600	FGF22 binding	HNF4A DNA FP	molecule
1.1	-1	18	8%	0.7	-2.8	11	i	5.0	COC(=O)c1ccc(NC(=O)Nc2ccc3c(c2)nc(C)n3C)cc1
1.6*	-2	-23*	30%	0.72	-2.2	-27*	i	-5.8	O=C(Nc1ccc(Cl)c(S(=O)(=O)N2CCOCC2)c1)c1ccc2c(c1)OCO2
0.1	·	-1	·	·	0.3	2	i	-1.9	CC1(C(=O)NC2CCCCC2)CCC(=O)N1CC(F)(F)F (configuration not stated)
-0.3	-5	-18	·	0.69	-3.7	-19	i	-3.0	CCOc1ccccc1NC(=O)c1cccc(NC(=O)C2CCCC2)c1
2.4	·	-2	·	·	0.1	-5	i	·	C[C@H](CO)N1C[C@H](C)[C@H](CN(C)C)OCCCC[C@H](C)Oc2ccc(NC(=O)Nc3cccc4ccccc34)cc2C1=O
-0.6	·	9	·	0.66	2.5	15	i	-1.6	O=C(COc1ccc(Cl)cc1)Nc1ccc2oc(=O)ccc2c1
·	0	·	-2%	0.84	·	·	·	1.9	CCOC(=O)NC(Nc1cc(C)on1)(C(F)(F)F)C(F)(F)F

(cont.)
Ecoli rRNA inh RFP	ALR H2O2 inh	Ecoli rRNA inh	Vif A3G	Ecoli growth	AF4-AF9 inh	Ecoli rRNA inh OD600	FGF22 binding	HNF4A DNA FP	molecule
3.8	·	6	·	·	-1.7	17	i	·	C[C@H]1CN([C@@H](C)CO)C(=O)c2cc(NC(=O)CCN3CCOCC3)ccc2O[C@@H]1CN(C)C
-0.2	-4	18	-4%	0.71	2.1	12	i	0.0	CNC(=O)NC(=O)C(C)N1CCN(C/C=C/c2ccccc2)CC1 (configuration not stated)
-2.1	·	4	·	·	-6.3	17	i	·	CS(=O)(=O)N1CCCCN2[C@@H](CO)[C@H](c3ccc(Br)cc3)[C@@H]2C1
-0.4	-3	1	·	0.69	2.5	-12	i	7.8	CCc1ccc(CN2CCC(C(=O)Nc3ccc(Oc4ccccc4)nc3)CC2)o1
·	-14	·	13%	0.66	·	·	·	-1.0	c1ccc(Cn2nnnc2C(c2cccs2)N2CCSCC2)cc1 (configuration not stated)
-0.1	·	0	·	·	-2.6	0	i	·	C[C@H]1CN([C@@H](C)CO)C(=O)Cc2cc(NS(=O)(=O)c3ccccc3)ccc2O[C@H]1CN(C)S(=O)(=O)c1ccccc1
-0.9	-4	2	-6%	0.72	-2.2	-5	i	6.2	Cc1ccc(-n2ncc3c2CC(C)(C)CC3NC(=O)c2ccncc2)cc1 (configuration not stated)
-1.8	·	-1	·	·	0.0	-2	i	·	C[C@@H]1CCCCO[C@@H](CN(C)Cc2ccc(C(=O)Nc3ccccc3N)cc2)[C@@H](C)CN([C@H](C)CO)C(=O)c2cc(NS(=O)(=O)c3cccs3)ccc2O1
-6.8	5	-26	-3%	·	-3.2	-36	i	3.5	Cc1cc(C(=O)N/N=C/c2cc(Br)ccc2OC(=O)c2ccccc2Cl)n[nH]1
4.7	·	3	·	·	4.7	-5	i	·	C[C@@H]1CCCCO[C@H](CN(C)Cc2ccc(C(F)(F)F)cc2)[C@H](C)CN([C@@H](C)CO)C(=O)c2cc(NC(=O)CCC(F)(F)F)ccc2O1
·	-14	·	25%	0.71	·	·	·	-3.7	CC1(C)CCCC2=C1CC1C(=O)N(c3ccccc3)C(=O)C1C2 (configuration not stated)
0.5	-9	6	·	0.7	-1.6	11	i	3.0	O=C(Nc1ccc2ccccc2c1)c1cc(F)c(F)cc1Cl
2.8	·	-7	·	·	-1.6	0	i	·	Cc1cc(C(=O)Nc2cccc3c2O[C@H](CN(C)S(=O)(=O)c2ccc(F)cc2)[C@H](C)CN([C@H](C)CO)C3=O)n(C)n1
·	-1	·	68%	0.66	·	·	·	4.7	COc1ccc2cnn(CCOc3cc(C)ccc3C(C)C)c(=O)c2c1OC
·	0	·	1%	0.67	·	·	·	1.9	Cc1ccc(NC(=O)c2ccc(CN3CCc4ccccc4C3)cc2)cc1
3.6	15	10	4%	0.7	0.1	14	i	12	Cc1cc(C(=O)CC#N)c(C)n1-c1c(C)n(C)n(-c2ccccc2)c1=O
16	2	15	·	0.68	-8.8	9	i	75	Cc1ccc(C(=O)NN2C(=O)/C(=C/c3cn(C)c4ccccc34)SC2=S)cc1
0.8	6	2	·	·	0.0	-1	i	4.2	COc1ccc(-c2cc(CNS(=O)(=O)c3ccc(NC(C)=O)cc3)on2)cc1
1.2	3	-8	·	0.65	0.2	-15	i	0.7	COc1ccccc1NC(=S)NC(NC(=O)CC(C)C)C(Cl)(Cl)Cl (configuration not stated)
-0.8	47	4	·	0.65	-1.1	16	i	3.5	COc1ccc(N2CCN(C(=O)NC(=O)c3ccccc3)CC2)cc1
-13	6	-49	11%	0.64	2.2	-78	i	3.0	Cc1c(Cl)cccc1NC(=S)NCC1COc2ccccc2O1 (configuration not stated)
·	-11	·	7%	0.66	·	·	·	3.9	COc1ccccc1OCC(O)Cn1nc(C)cc1C (configuration not stated)
-2.8	·	4	4%	0.7	0.5	4	i	-2.0	Cc1ccc(S(=O)(=O)N2CCOCC2)cc1C(=O)N1CCN(Cc2ccccc2)CC1
3.1	-4	-6	5%	0.7	0.1	4	i	5.8	CC(C)C(=O)N1CCN(c2ccccc2NC(=S)NC(=O)/C=C/c2ccco2)CC1
-0.5	·	-3	·	·	0.1	5	i	·	C[C@@H]1CN([C@H](C)CO)C(=O)c2cc(NC(=O)CCC(F)(F)F)ccc2O[C@H]1CN(C)Cc1ccc(C(=O)Nc2ccccc2N)cc1
-2.1	·	-15	·	0.71	-6.8	-12	·	0.8	COC(=O)CSc1nc(COc2ccccc2)nc2ccccc12
-2.1	-5	19	0%	0.66	-6.1	7	i	194	O=C(O)CN1C(=O)/C(=C\c2cn(CC(=O)N3CCOCC3)c3ccccc23)SC1=S
-3.7	0	-2	8%	0.66	-3.8	4	i	-5.5	Cc1cccc(N=C2NC(=O)C(CO)(CO)S2)c1
-1.0	·	3	·	·	-1.8	2	i	·	COCC(=O)N[C@H]1C=C[C@H](CC(=O)NCc2ccc(Cl)cc2)O[C@H]1CO
-3.7	1	3	·	0.67	0.1	2	i	0.7	COc1ccc(Cl)cc1S(=O)(=O)NC(C)C(=O)NCc1ccncc1 (configuration not stated)
0.6	-3	4	4%	0.72	-1.4	2	i	1.8	COc1ccccc1OCC#CCSc1ncccn1
0.7	·	8	0%	·	-2.0	2	i	0.4	Cc1ccc(S(=O)(=O)/N=C(/Nc2cccc(C(=O)O)c2)c2ccccc2)cc1
0.1	5	4	·	0.67	11	6	·	6.8	COc1ccc(N2CCN(C(=O)CSc3nc4[nH]ncc4c(=O)n3-c3cccc4ccccc34)CC2)cc1
-16	-4	-49	7%	0.64	1.6	-49	i	1.0	COC(=O)c1cccc(NC(=O)Nc2ccc(Cl)c(Cl)c2)c1
3.4	-19	-2	1%	0.67	5.4	6	i	-0.8	COc1ccc(C(O)(CCC(C)C)C(CN2CCOCC2)c2ccccc2)cc1 (configuration not stated)
-3.5	23	10	?	0.72	-1.8	13	i	7.9	Nc1nc(C2C(=O)CCCC2=O)cs1
-1.5	·	1	·	·	-1.7	7	i	·	CCCC(=O)Nc1ccc2c(c1)OC[C@@H](C)N(CCC)C[C@H](C)[C@H](OC)CN(C)C2=O
-2.8	-5	17	·	0.65	0.5	22	i	-1.9	Nc1nc2c(c(=O)[nH]1)CN(Cc1ccccc1)CC2
32	·	-11	·	·	2.6	-27	i	·	C[C@H](CO)N1C[C@H](C)[C@H](CN(C)Cc2ccc(Oc3ccccc3)cc2)Oc2ccc(NC(=O)c3ccncc3)cc2CC1=O
-2.7	·	-40	2%	0.66	-4.6	-41	i	3.0	O=C(c1ccc(F)cc1)N1CCCN(c2nc(-c3ccccc3)ns2)CC1
45	-10	0	·	0.72	-1.2	8	i	-17	Cc1cc2cc(CNC(=O)c3ccco3)ccc2n1C
0.1	47	11	2%	·	-3.4	2	i	-0.9	COc1cc(/C=N/Nc2ccc(C(=O)O)cc2)cc(OC)c1OC
-1.3	·	2	0%	0.71	-4.2	7	i	-2.4	Cc1ccccc1NC(=O)CNC(=O)c1ccc(C(F)(F)F)cc1
-5.9	·	7	-28%	0.65	-1.4	5	i	-5.0	C=CCNC(=O)Cc1c(OC)ccc2cc(Br)ccc12
·	1	·	·	·	-3.6	·	i	-5.2	CC1=C(/C=C/C(C)=C/C=C/C(C)=C\C(=O)O)C(C)(C)CCC1
-3.8	·	-17	·	·	1.2	-19	i	2.5	COc1ccc(NC(=O)c2cc(-c3cc(F)ccc3OC)n[nH]2)cc1OC
0.0	-3	7	29%	0.7	16	7	i	-1.0	CC(C)N1CCCC(CNC(=O)CCc2nnc(CCCCc3ccccc3)o2)C1 (configuration not stated)
·	-3	·	-1%	0.72	·	·	·	-5.0	CCCCCC1CC(CC(=O)NC(=S)Nc2ccc([N+](=O)[O-])cc2)C(=O)O1 (configuration not stated)

Source: PubChem

This is a subset; rates above refer to the full screens.
